A488 autofl – compound fluoresces in the A488 spectral region; max dye equivalency, M; AID 591; compound autofluorescence, A488 spectral region, dye equivalency; hits give high values; 59,000 tested, 0.1% active; active = above 10 nM dye equivalent; inconclusive = 1 to 10 nM; inactive = 1 nM or less; about half of its hits are not listed in these tables;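 note: highest value over a series up to 38 µM; compound alone in buffer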
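Spectroscopic profiling in the A488 region: compounds in pH 8.0 Tris (100 mM), 15 min RT, CCD imaging with 480 nm excitation and 540 nm emission; responses normalized against A488 dye standards.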
AID923 – qHTS Assay for Allosteric/Competitive Inhibitors of Caspase-1: Spectroscopic Profiling in AFC Spectral Region | compound fluorescence, AFC spectral region (405/520 nm); almost no hit is shown here | Potency, µM (highest dose often 57.5 µM), without a hit: at the top dose fluorescence increase, most hits filed as activators | 75,000 tested, 1.1% active | AID 923, 2007; active = well fitted activation curve with a large enough effect; inconclusive = small, poorly fitted or top-dose-only effect;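 note: potency is the fitted concentration of half-maximal effect; 0% is about no effect; scaled to a free AFC standard on each plate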
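Compound autofluorescence profiled at 405 nm ex/520 nm em during kinetic caspase 1 run (50 nM enzyme, 5 uM Ac-WEHD-AFC, HEPES pH 7.5, 10 mM DTT). Titration up to 57 uM; baseline from regression intercept, normalized to AFC standard curve.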
TSHR agonist – activates the human thyroid stimulating hormone receptor; HEK293-CNG-TSHR cells (CNG channel as cAMP sensor), membrane potential dye, cAMP; Potency, µM (titrated, usually from 57.1 µM), for the others: top-dose activation, most hits filed as activators; 73,000 tested, 0.48% active; active = well fitted activation curve of enough size with the parental cells flat; inconclusive = any curve in the parental cells; inactive = parental cells flat and receptor cells flat or falling; note: potency is the fitted concentration of half-maximal effect; % of control where 0% means no effect; weak receptor curves with flat parental cells got no call and are not listed
Target sequence (P16473 whole entry, looked up): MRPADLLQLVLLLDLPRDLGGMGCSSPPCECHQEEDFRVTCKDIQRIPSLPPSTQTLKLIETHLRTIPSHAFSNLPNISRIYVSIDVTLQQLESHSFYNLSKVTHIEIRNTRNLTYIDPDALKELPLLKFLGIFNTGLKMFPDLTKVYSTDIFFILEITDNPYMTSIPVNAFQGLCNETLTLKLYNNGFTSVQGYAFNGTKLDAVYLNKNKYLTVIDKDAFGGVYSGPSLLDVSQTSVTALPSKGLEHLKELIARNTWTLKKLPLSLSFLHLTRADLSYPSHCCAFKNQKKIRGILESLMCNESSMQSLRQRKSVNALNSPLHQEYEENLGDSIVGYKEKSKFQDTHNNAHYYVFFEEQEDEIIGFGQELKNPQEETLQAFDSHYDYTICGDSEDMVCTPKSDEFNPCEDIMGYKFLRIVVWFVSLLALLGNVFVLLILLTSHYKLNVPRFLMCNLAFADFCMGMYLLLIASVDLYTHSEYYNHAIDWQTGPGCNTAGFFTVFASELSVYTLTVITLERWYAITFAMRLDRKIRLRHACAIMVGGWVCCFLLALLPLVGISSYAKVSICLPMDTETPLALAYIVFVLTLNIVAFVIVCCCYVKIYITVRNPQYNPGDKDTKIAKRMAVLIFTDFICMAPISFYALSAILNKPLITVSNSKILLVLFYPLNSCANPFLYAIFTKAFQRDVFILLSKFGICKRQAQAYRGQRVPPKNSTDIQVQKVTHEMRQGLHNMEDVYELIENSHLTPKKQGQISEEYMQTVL
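cAMP rise detected as CNG-channel membrane depolarization by fluorescent dye (emission 590 nm), 30 min after compound, following 60 min dye loading containing 100 uM RO 20-1724 at room temperature. Cells: TSHR/CNG HEK 293, with parental CNG HEK 293 as control.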
A647 fluor – compound fluoresces in the A647 spectral region | max dye-equivalent concentration, M | 59,000 tested, under 10 active | Compound fluorescence, A647 channel (570/671 nm), Tris buffer; active means above 1 µM dye equivalent; inconclusive means 0.1 to 1 µM; inactive means 0.1 µM or less;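 note: values scaled relative to a standard on each plate; highest value over a series up to 38 µM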
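Buffer was dispensed, compounds and Alexa 647 standards were pin-transferred, and plates sat 15 min at room temperature. Intensity at 570/671 nm was then converted to dye-equivalent concentration using the plate's A647 standard curve.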
Resorufin autofl – compounds fluorescent in resorufin spectral region; Compound fluorescence, resorufin region 547/598 nm, buffer; hits give high values; max dye-equivalent concentration, M; 59,000 tested, 0.04% active; AID 588; active = above 10 nM dye equivalent; inconclusive = 1 to 10 nM; inactive = 1 nM or less; a few of its hits are not listed in these tables; note: highest value over a series up to 38 µM
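Tris 100 mM pH 8.0; compound added, 15 min RT; CCD imager read, ex 547 nm/em 598 nm; signal normalized to resorufin standard curve (six concentrations per plate) as dye-equivalent concentration.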
The depositor's hits bear a star; [ ] = remark or other dose. This is a subset; rates above refer to the full screens.

O=C1c2ccccc2-c2ncnc3c(N4CCOCC4)cc(N4CCOCC4)c1c23 was read as AID923 -1.1% and TSHR agonist inconclusive.
For CCCCc1nnc(NC(=O)C2CCCO2)s1 (stereo not drawn) the results were A488 autofl inactive, AID923 1.0%, TSHR agonist -2%, A647 fluor 1.4e-09 and Resorufin autofl inactive.
For Cc1ccc(-n2c(C)c3c(C)nnc(C)c3c2C)cc1 the results were A488 autofl inactive, AID923 3.1%, TSHR agonist inconclusive, A647 fluor 3.1e-09 and Resorufin autofl inactive.
`CN(C1CCCCC1)S(=O)(=O)c1ccc(NC(=O)CCC(=O)O)cc1` gave A488 autofl inactive, AID923 -1.9%, TSHR agonist 2%, A647 fluor 3.6e-08 and Resorufin autofl inactive.
For CCCCCC(=O)Nc1ccc(Cl)cn1 the results were A488 autofl inactive, AID923 0.7%, TSHR agonist -2%, A647 fluor 3.6e-08 and Resorufin autofl inactive.
`O=C(c1c(F)cccc1F)N(Cc1ccccn1)C1CCCC1` gave A488 autofl inactive, AID923 0.8%, A647 fluor 1e-09 and Resorufin autofl inactive.
For CN(C)C(=O)N1CCC(C(=O)NCc2cccs2)CC1 the results were A488 autofl inactive, AID923 0.1%, TSHR agonist -7%, A647 fluor 3.7e-09 and Resorufin autofl inactive.
For O=C(NCc1ccco1)c1ccc(CS(=O)(=O)Cc2ccc(Cl)cc2)o1 the results were A488 autofl inactive, AID923 -1.7%, TSHR agonist 6%, A647 fluor 4e-09 and Resorufin autofl inactive.
`COc1ccc(Br)cc1CNC(=O)CCc1nc(-c2ccc(C)cc2)no1` gave A488 autofl inactive, AID923 -0.6%, TSHR agonist inconclusive, A647 fluor 8.7e-09 and Resorufin autofl inactive.
Screening CCn1c(SCC(=O)N2CC(=O)Nc3ccccc32)nnc1-c1ccoc1C returned A488 autofl inactive, AID923 -3.1%, TSHR agonist -5%, A647 fluor 7.2e-09 and Resorufin autofl inactive.

The final three records of the section before come first, to join the parts:
For O=C(NCc1ccco1)c1ccc(CS(=O)(=O)Cc2ccc(Cl)cc2)o1 the results were A488 autofl inactive, AID923 -1.7%, TSHR agonist 6%, A647 fluor 4e-09 and Resorufin autofl inactive.
`COc1ccc(Br)cc1CNC(=O)CCc1nc(-c2ccc(C)cc2)no1` gave A488 autofl inactive, AID923 -0.6%, TSHR agonist inconclusive, A647 fluor 8.7e-09 and Resorufin autofl inactive.
Screening CCn1c(SCC(=O)N2CC(=O)Nc3ccccc32)nnc1-c1ccoc1C returned A488 autofl inactive, AID923 -3.1%, TSHR agonist -5%, A647 fluor 7.2e-09 and Resorufin autofl inactive.
CCOC(=O)C1CCCN(CCC(C)c2ccccc2)C1 (stereo not drawn) was read as A488 autofl inactive, AID923 -1.5%, TSHR agonist 5%, A647 fluor 1e-09 and Resorufin autofl inactive.
For CC(C)(C)c1ccc(-c2noc(CCC(N)=O)n2)cc1 the results were A488 autofl inactive, AID923 -0.4%, TSHR agonist -2%, A647 fluor 1.4e-09 and Resorufin autofl inactive.
Cc1cc(NC(=O)C2CCCC2)nc2c1c(=O)oc1ccccc12 was read as A488 autofl inactive, AID923 0.6%, TSHR agonist inconclusive, A647 fluor 1e-09 and Resorufin autofl inactive.
`CCn1c(C(=O)NCc2ccccn2)cc2sccc21` gave AID923 -0.6% and TSHR agonist 29%.
`CCOC(=O)CSc1ccc2nnc(-c3cccnc3)n2n1` gave AID923 -3.3% and TSHR agonist -5%.
For Cc1cc(N2CCN(C3CCCC3)CC2)n2nc(C)c(-c3ccccc3)c2n1 the results were A488 autofl inactive, AID923 -0.6%, TSHR agonist 4%, A647 fluor 4.3e-09 and Resorufin autofl inactive.
Cc1csc(NC(=O)C(Cc2ccccc2)n2cccc2)n1 (stereo not drawn) was read as AID923 0.8% and TSHR agonist -10%.
`COc1cccc(C(=O)Nc2cccc(C(=O)N3CCOCC3)c2)c1` gave A488 autofl inactive, AID923 -0.8%, TSHR agonist -3%, A647 fluor 3e-09 and Resorufin autofl inactive.
Screening Cc1ccc(S(=O)(=O)N2CCCC2C(=O)Nc2ccc(O)cc2)cc1 (stereo not drawn) returned AID923 4.6% and TSHR agonist -4%.
For O=C(OCc1cc(Cl)ccc1OC(F)F)c1cc(S(=O)(=O)O)ccc1O the results were A488 autofl inactive, AID923 0.6%, TSHR agonist 12%, A647 fluor 1.7e-08 and Resorufin autofl inactive.
For O=C(NCC1CCCO1)NC12CC3CC(CC(C3)C1)C2 (stereo not drawn) the results were AID923 0.2% and TSHR agonist -4%.
For O=C(c1csnn1)N1CCC2(CCN(Cc3ccccc3)CC2)CC1 the results were A488 autofl inactive, AID923 3.9%, TSHR agonist 3%, A647 fluor 2.2e-08 and Resorufin autofl inactive.
Screening CCn1c(SCC(=O)Nc2nccs2)nnc1-c1ccc(S(=O)(=O)N2CCCCC2)cc1 returned A488 autofl inactive, AID923 -0.7%, TSHR agonist 15%, A647 fluor 5.5e-09 and Resorufin autofl inactive.
C=CCN1C(=O)c2ccccc2Sc2ccc(C(=O)N3CCN(C)CC3)cc21 was read as A488 autofl inactive, AID923 -0.7%, TSHR agonist -1%, A647 fluor 1.7e-08 and Resorufin autofl inactive.
Screening O=C(Nc1ccc(N2CCOCC2)cc1)c1cccc(S(=O)(=O)N2CCCC2)c1 returned A488 autofl inactive, AID923 -0.2%, TSHR agonist 0%, A647 fluor 1e-09 and Resorufin autofl inactive.
For CC(=O)N1CCC2(CCCN(Cc3nccs3)C2)CC1 the results were A488 autofl inactive, AID923 0.0%, TSHR agonist inconclusive, A647 fluor 2.1e-08 and Resorufin autofl inactive.
For COc1ccc2oc(-c3ccccc3)c(OC)c(=O)c2c1 the results were A488 autofl inactive, AID923 0.9%, TSHR agonist inconclusive, A647 fluor 2.4e-09 and Resorufin autofl inactive.
`CC(C)[C@H](N=Cc1ccccc1O)C(=O)O` gave A488 autofl inactive, AID923 1.5%[11.5 µM], TSHR agonist 4%[11.4 µM], A647 fluor 1e-09 and Resorufin autofl inactive.
`CCOc1ccc(NC(=O)c2cccc3c2C(=O)N(Cc2cccnc2)C3)cc1` gave A488 autofl inactive, AID923 -0.3%, TSHR agonist 7%, A647 fluor 5.2e-09 and Resorufin autofl inactive.
For COc1ccc2c(c1)C(NC(C)=O)C(=O)N2C (stereo not drawn) the results were A488 autofl inactive, AID923 1.2%, TSHR agonist 6%, A647 fluor 1e-09 and Resorufin autofl inactive.

Filtered by structure, those above containing fluorine
`O=C(c1c(F)cccc1F)N(Cc1ccccn1)C1CCCC1` gave A488 autofl inactive, AID923 0.8%, A647 fluor 1e-09 and Resorufin autofl inactive.
For O=C(OCc1cc(Cl)ccc1OC(F)F)c1cc(S(=O)(=O)O)ccc1O the results were A488 autofl inactive, AID923 0.6%, TSHR agonist 12%, A647 fluor 1.7e-08 and Resorufin autofl inactive.

Later entries
For CC(C)c1ccc(NC(=O)COC(=O)C2=COCCO2)cc1 the results were A488 autofl inactive, AID923 -0.5%, TSHR agonist -2%, A647 fluor 1e-09 and Resorufin autofl inactive.
Screening C=CCn1c2ccccc2c2nnc(SCc3ccc4nonc4c3)nc21 returned A488 autofl inactive, AID923 -0.5%, TSHR agonist inconclusive, A647 fluor 5.6e-09 and Resorufin autofl inactive.
`CCOC(=O)Nc1ccc2ncn(C)c(=O)c2c1` gave AID923 -2.0% and TSHR agonist -7%.
C=CCNC(=O)C1CC(=O)N(c2ccc(OCC(=O)Nc3ccc(OC)cc3)cc2)C1 (stereo not drawn) was read as A488 autofl inactive, AID923 0.7%, TSHR agonist -2%, A647 fluor 1.1e-08 and Resorufin autofl inactive.
For O=C(c1ccc(Cl)cc1)C1CCN(C(=O)N2CCOCC2)CC1 the results were A488 autofl inactive, AID923 1.0%, TSHR agonist 11%, A647 fluor 1.9e-09 and Resorufin autofl inactive.
COc1cc(OC)c(C(=O)CCCN2CCCC2)c(OC)c1 was read as A488 autofl inactive, AID923 -0.6%[25.7 µM], TSHR agonist -16%[25.6 µM], A647 fluor 1e-09 and Resorufin autofl inactive.
O=C1CC(NCc2ccc3c(c2)OCO3)C(=O)N1Cc1ccc2c(c1)OCO2 (stereo not drawn) was read as A488 autofl inactive, A647 fluor 2e-08 and Resorufin autofl inactive.
`Cc1cccn2cc(CNC(=O)c3ccco3)nc12` gave A488 autofl inactive, AID923 -3.0%, TSHR agonist 19%, A647 fluor 1.7e-09 and Resorufin autofl inactive.
Screening CCOC(=O)C1=C(C)N(CCO)C(=O)NC1c1ccccc1 (stereo not drawn) returned A488 autofl inactive, AID923 2.2%, TSHR agonist inconclusive, A647 fluor 5.4e-09 and Resorufin autofl inactive.
Cc1ccccc1Cn1cnc2c(nnn2Cc2ccc(F)cc2)c1=O was read as A488 autofl inactive, AID923 -2.7%, TSHR agonist inconclusive, A647 fluor 1.6e-09 and Resorufin autofl inactive.
For O=S(=O)(NC1CC1)c1ccc(S(=O)(=O)N2CCc3ccccc32)cc1 the results were A488 autofl inactive, AID923 -0.7%, A647 fluor 1.5e-08 and Resorufin autofl inactive.
COc1ccc(NC(=O)CN(C)S(=O)(=O)c2ccccc2)cc1OC was read as A488 autofl inactive, AID923 2.0%, TSHR agonist 3%, A647 fluor 1.5e-08 and Resorufin autofl inactive.
Screening Cc1ccc(OC(=O)CCc2c(C)nc3ncnn3c2C)cc1 returned A488 autofl inactive, AID923 1.2%, TSHR agonist 7%, A647 fluor 1e-09 and Resorufin autofl inactive.
Screening c1ccc2c(c1)nc1n2CCS1 returned A488 autofl inactive, AID923 -0.4%, TSHR agonist 15%, A647 fluor 4.7e-09 and Resorufin autofl inactive.
c1csc(-c2cnc3n2CCCC3)c1 was read as A488 autofl inactive, AID923 -1.9%, TSHR agonist -4%[11.4 µM], A647 fluor 5.6e-09 and Resorufin autofl inactive.
O=C(O)C1=C(C(=O)Nc2ccc(F)c(Cl)c2)CCCC1 was read as A488 autofl inactive, AID923 0.5%, TSHR agonist -11%, A647 fluor 2.3e-09 and Resorufin autofl inactive.
Screening COCCNC(=O)CC(NS(=O)(=O)c1ccc(C)cc1)c1ccco1 (stereo not drawn) returned A488 autofl inactive, AID923 0.8%, TSHR agonist inconclusive, A647 fluor 4.2e-09 and Resorufin autofl inactive.
Screening CCC(C)(C)NC(=O)C(c1cccnc1)N(CCOC)C(=O)Cn1nnc2ccccc21 (stereo not drawn) returned A488 autofl inactive, AID923 -1.1%, TSHR agonist 6%, A647 fluor 6.5e-08 and Resorufin autofl inactive.
`O=S(=O)(c1ccc2c(c1)OCCO2)N1CCC(n2cnc3cc(F)ccc32)CC1` gave A488 autofl inactive, AID923 0.5%, TSHR agonist 5%, A647 fluor 5.2e-09 and Resorufin autofl inactive.
`Cc1cc(=O)oc2ccc(OC(=O)c3cccc(S(=O)(=O)N4CCOCC4)c3)cc12` gave A488 autofl inactive, AID923 -2.8%, A647 fluor 1.4e-08 and Resorufin autofl inactive.
For O=S(=O)(NC1CCCc2ccccc21)c1cnc[nH]1 (stereo not drawn) the results were A488 autofl inactive, AID923 2.7%, TSHR agonist -2%, A647 fluor 1e-09 and Resorufin autofl inactive.
For COc1ccc(OC)c(NS(=O)(=O)c2ccc(NC(=O)C3COc4ccccc4O3)cc2)c1 (stereo not drawn) the results were AID923 -2.2% and TSHR agonist -12%[11.4 µM].
`CCOC(=O)c1cnc(-n2cc(C)cn2)nc1Nc1ccccc1OCC` gave A488 autofl inactive, AID923 -3.7%, TSHR agonist inconclusive, A647 fluor 9.8e-09 and Resorufin autofl inactive.
Screening O=C1c2ccccc2C(=O)N1OCCOCCOCCON1C(=O)c2ccccc2C1=O returned A488 autofl inactive, AID923 -1.6%, TSHR agonist -5%, A647 fluor 7.5e-09 and Resorufin autofl inactive.
For CCOC(=O)c1sc(NC(=O)CSc2nnc3c4ccccc4n(CC)c3n2)nc1C the results were AID923 1.1% and TSHR agonist 18%.
For CCc1ccccc1NC(=O)c1cc2sccc2n1C the results were AID923 0.3% and TSHR agonist inconclusive.

Bioassay records: PubChem, National Center for Advancing Translational Sciences (NCATS)
